A488 fluor: compound autofluorescence in A488 spectral region | max dye equivalency, M | compound autofluorescence, A488 spectral region, dye equivalency; hits give high values | 59,000 compounds, 0.1% hits; active = above 10 nM dye equivalent; inconclusive = 1 to 10 nM; inactive = 1 nM or less; about half of its hits are not listed in these tables;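 note: highest value over a series up to 38 µM; compound alone in buffer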
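Readout is A488 dye-equivalent concentration, calibrated by a per-plate six-point Alexa 488 series. Compounds in 100 mM Tris buffer pH 8.0 were incubated 15 min at room temperature. Plates were imaged using 480 nm excitation/540 nm emission filters.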
A647 autofl: compound autofluorescence in A647 spectral region; AID 592; 59,000 tested, under 10 active; max dye-equivalent concentration, M; Compound fluorescence, A647 channel (570/671 nm), Tris buffer; active means above 1 µM dye equivalent; inconclusive means 0.1 to 1 µM; inactive means 0.1 µM or less;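 note: values scaled relative to a standard on each plate; highest value over a series up to 38 µM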
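Each compound's intrinsic fluorescence at 570 nm excitation and 671 nm emission is measured across its concentration series in 100 mM Tris, pH 8.0, after 15 min at room temperature, and reported relative to an A647 curve.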
AID923: qHTS Assay for Allosteric/Competitive Inhibitors of Caspase-1: Spectroscopic Profiling in AFC Spectral Region. compound fluorescence, AFC spectral region (405/520 nm); almost no hit is shown here. Potency, µM (top dose mostly 57.5 µM), for the others: top-dose fluorescence increase, most hits filed as activators. 75,000 compounds, 1.1% hits. AID 923, 2007; active = well fitted activation curve with a large enough effect; inconclusive = small, poorly fitted or top-dose-only effect;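 note: potency is the fitted concentration of half-maximal effect; 0% is about no effect; scaled to a free AFC standard on each plate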
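Baseline compound fluorescence (AFC region, 405 nm ex/520 nm em) taken from the intercept of kinetic reads with 50 nM caspase-1 and 5 uM Ac-WEHD-AFC; normalized to an on-plate AFC standard curve; compounds titrated up to 57 uM.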
Resorufin autofl: compounds fluorescent in resorufin spectral region; Compound fluorescence, resorufin region 547/598 nm, buffer; hits give high values; max dye-equivalent concentration, M; 59,000 compounds, 0.04% hits; active = above 10 nM dye equivalent; inconclusive = 1 to 10 nM; inactive = 1 nM or less; a few of its hits are not listed in these tables; note: highest value over a series up to 38 µM
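Compounds in 100 mM Tris buffer, pH 8.0, incubated 15 min at room temperature, then read with 547 nm excitation and 598 nm emission filters. Fluorescence was converted to dye-equivalent concentration using an on-plate six-point resorufin standard curve.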
TSHR agonist: TSH receptor (human) agonism; AID 926; Potency, µM (doses to about 57.1 µM), for the others: at the top dose activation, usual class: activators; 73,000 compounds, 0.48% hits; HEK293-CNG-TSHR cells (CNG channel as cAMP sensor), membrane potential dye, cAMP; P16473; active = well fitted activation curve of enough size with the parental cells flat; inconclusive = any curve in the parental cells; inactive = parental cells flat and receptor cells flat or falling; note: potency is the fitted concentration of half-maximal effect; % of control where 0% means no effect; weak receptor curves with flat parental cells got no call and are not listed
Target sequence (P16473 whole entry, looked up): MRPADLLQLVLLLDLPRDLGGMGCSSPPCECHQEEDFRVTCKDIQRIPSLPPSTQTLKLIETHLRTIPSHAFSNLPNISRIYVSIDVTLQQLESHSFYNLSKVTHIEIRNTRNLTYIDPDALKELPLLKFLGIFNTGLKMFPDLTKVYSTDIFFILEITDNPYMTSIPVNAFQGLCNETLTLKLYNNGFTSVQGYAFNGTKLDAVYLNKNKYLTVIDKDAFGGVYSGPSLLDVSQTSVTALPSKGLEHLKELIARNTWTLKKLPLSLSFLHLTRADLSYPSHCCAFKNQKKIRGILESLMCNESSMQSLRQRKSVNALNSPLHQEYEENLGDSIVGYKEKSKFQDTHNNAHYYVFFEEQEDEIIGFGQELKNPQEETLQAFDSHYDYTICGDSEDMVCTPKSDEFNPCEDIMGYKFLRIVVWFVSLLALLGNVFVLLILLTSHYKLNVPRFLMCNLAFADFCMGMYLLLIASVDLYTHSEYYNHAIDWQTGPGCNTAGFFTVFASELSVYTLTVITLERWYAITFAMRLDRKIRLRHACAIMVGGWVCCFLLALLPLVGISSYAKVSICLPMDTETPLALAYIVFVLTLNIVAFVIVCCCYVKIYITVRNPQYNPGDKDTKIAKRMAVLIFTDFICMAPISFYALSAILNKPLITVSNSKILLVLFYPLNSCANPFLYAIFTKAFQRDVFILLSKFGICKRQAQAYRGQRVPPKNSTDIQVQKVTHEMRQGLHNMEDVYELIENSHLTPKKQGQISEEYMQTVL
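HEK 293 cells stably expressing TSHR and a modified CNG channel, with CNG-only parental cells as counterscreen, were preloaded 60 min at room temperature with membrane potential dye containing 100 uM RO 20-1724. Compound exposure was 30 min, and depolarization was read as fluorescence at 590 nm.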
* marks the source's active call; other numbers are inactive results; i = inactive; ? = inconclusive; . = not tested or not shown; [ ] = dose if it differs, or a comment. Some of the compounds tested. The share of hits here may be higher or lower than overall.

SMILES	A488 fluor	A647 autofl	AID923	Resorufin autofl	TSHR agonist
CN1C(=O)c2ccccc2C(C(=O)O)C1c1cccc(F)c1 (centres undefined)	i	2.2e-08	-1.4%	i	-6%[11.4 µM]
O=C(NCCCN1CCCCC1)C1(S(=O)(=O)c2ccc(Cl)cc2)CC1	.	.	-1.5%	.	17%
COCCNC(=O)C1CC(=O)N(C2CCCCC2)C1 (centres undefined)	i	2.9e-08	-3.4%	i	3%[11.4 µM]
Cn1c(-c2ccc3c(c2)OCO3)cc(=O)c2ccccc21	i	1e-09	2.4%[25.7 µM]	i	0%[25.6 µM]
O=c1cc(NCc2ccc3c(c2)OCO3)[nH]c(=O)n1-c1ccc(Cl)cc1	i	4.7e-09	-2.0%	i	-5%
COc1ccc(OC)c(N(CC(=O)N2CCN(c3cc(Cl)ccc3C)CC2)S(C)(=O)=O)c1	i	1e-09	-0.7%	i	?
O=C1CC(c2ccco2)Cc2nc(Nc3ccc(F)cc3)ncc21 (centres undefined)	i	5.4e-09	-2.2%	i	?
COc1cc2cc(CN(C(=O)NC3CCCCC3)C3CCCC3)c(=O)[nH]c2cc1OC	i	6.2e-09	-0.5%	i	?
CCOC(=O)CSc1nc2cc(C(=O)NCc3ccco3)ccc2c(=O)n1-c1ccc(F)cc1	i	1.2e-08	-0.4%	i	-7%
CCOc1ccccc1CNC(=O)C1CCC(=O)N1C(C)C (centres undefined)	i	3.8e-09	-2.0%	i	1%
C[C@@H](C(=O)Nc1ccc2ccccc2c1)[C@@H]1C[C@@]1(C)[C@@H](NC(=O)c1cccnc1)c1ccccc1	.	.	2.2%	.	14%
CC(C)=CCc1c(C)nc2ccccc2c1C(=O)O	i	2.6e-08	0.4%	i	15%
Cc1cc(C(=O)NCc2cccs2)c(C)o1	i	1.9e-08	2.5%	i	6%
COCCCn1c(SCC(=O)NC2CCCCC2)nnc1-c1ccncc1	i	4.4e-08	1.1%	i	-1%
O=C(c1ccc(-c2nnc(-c3ccccc3)o2)cc1)N1CCCCCC1	i	1.1e-09	0.8%	i	.
CCOC(=O)C(C(C)=O)c1nc(C)nc2c1nnn2Cc1ccccc1Cl (centres undefined)	i	1e-09	2.2%	i	8%
Cc1cc(C)c(C(N)=O)c(Nc2cccc(Cl)c2C)n1	i	1.4e-08	-0.9%	i	-5%
CC1CCN(C(c2ccc(N(C)C)cc2)c2nnnn2Cc2ccccc2)CC1 (centres undefined)	i	4.2e-09	3.6%	i	21%
Cc1cc(-c2ccccc2)nc(=O)[nH]1	i	5e-08	1.2%	i	-1%
COCCn1nnnc1CN1CCC(Cc2ccccc2)CC1	i	5.8e-09	1.8%	i	3%
COc1ccc(NC(=O)CN(C)S(=O)(=O)c2cccs2)cc1	i	1e-09	-0.8%	i	-1%
CCN(CC)S(=O)(=O)c1cccc(C(=O)Oc2cccnc2)c1	i	4.1e-08	-0.7%	i	-13%
CCOC(=O)N1CCC(Nc2c(N3CCN(c4cc(Cl)ccc4C)CC3)c(=O)c2=O)CC1	.	.	0.6%	.	-7%
CCN(CC)S(=O)(=O)c1ccc(Cl)c(C(=O)NC)c1	.	.	-1.5%	.	1%[11.4 µM]
CCC(=O)Nc1c(C(=O)N2CCCCCC2)cnn1-c1ccc(C)c(C)c1	i	1.8e-08	0.8%	i	15%

(listing goes on)
SMILES	A488 fluor	A647 autofl	AID923	Resorufin autofl	TSHR agonist
Cc1ccn2cc(C(=O)Nc3ccc4c(c3)OCCO4)nc2c1	i	1e-09	1.5%	i	4%
CCCn1c(CNc2ccccc2O)nc2ccccc21	i	1.6e-08	0.3%	i	-13%
O=C1C2[C@@H](c3ccccc3)N[C@@H](c3ccccc3)C1[C@H](c1ccccc1)N[C@H]2c1ccccc1	i	1e-09	-1.3%[11.5 µM]	i	-1%[11.4 µM]
O=C(NCc1ccccc1Cl)c1cnn2cccnc12	i	1.9e-09	3.2%	i	-8%
C=CCOn1c(=O)c(-c2cc3ccccc3o2)[n+]([O-])c2ccccc21	i	2.2e-08	.	i	.
CC(C)(C)c1nc2scc(-c3cccs3)c2c(=O)o1	i	1e-09	0.6%	i	19%
Nc1c(NCCC2=CCCCC2)c(=O)[nH]c(=O)n1Cc1ccccc1	i	1e-08	14%	i	5%
c1cncc(CNc2nc(-c3cccnc3)nc3ccccc23)c1	i	3.7e-08	2.5%	i	25µM*
O=C(CCC1COc2ccccc2O1)NCC1COc2ccccc2O1 (centres undefined)	i	2.9e-08	2.6%	i	26%
CCOC(=O)N1CCN(C(=O)CSc2nnc(-c3ccc(C(C)(C)C)cc3)o2)CC1	.	.	2.8%	.	1%
COc1ccc(N2CCN(c3ncnc4c3cnn4-c3ccc(C)cc3C)CC2)cc1	i	4.7e-09	-0.9%	i	-9%
COc1ccc(-c2noc(CCC(=O)N3CCN(c4cc(C)ccc4C)CC3)n2)cc1	i	1e-09	1.4%	i	?
O=C(CN1C(=O)C2C3C=CC(C3)C2C1=O)NCCc1ccccc1 (centres undefined)	i	6.3e-09	0.0%	i	-3%
CCCC/C=C/C(NC(=O)CCc1ccccc1)c1ccccc1 (centres undefined)	.	.	-1.6%	.	?
CCC(C)(C)NC(=O)CC(c1ccc(OC)cc1)n1cccc1 (centres undefined)	i	1.1e-08	-4.4%	i	26%
Cc1ccc(S(=O)(=O)N2CCC(C(=O)Nc3ccccc3N3CCCCC3)CC2)cc1	i	1.7e-08	1.7%	i	10%
CNc1ccc(O)cc1	.	.	6.3%	.	-4%
Cn1c2ccccc2c2c(C(=O)NCc3ccco3)cn(C3CCCCC3)c(=O)c21	i	5.5e-09	-2.1%	i	?
COc1cccc(-c2cc(C(=O)Nn3cnnc3)c3ccccc3n2)c1	.	.	-0.6%	.	-7%
O=C(O)C1CCN(S(=O)(=O)c2cccnc2)CC1	i	1e-09	1.2%	i	2%
CCCCCCC1=Cc2cc(OC)c(OC)cc2C(C(C(C)=O)C(=O)OC)O1 (centres undefined)	.	.	-0.3%[11.5 µM]	.	0%[11.4 µM]
COc1ccc(-c2nnn(CC(=O)N(CC(=O)NCCC(C)C)Cc3cccs3)n2)cc1OC	i	1.4e-09	-2.9%	i	11%
O=C1OCCC1Sc1nc2ccccc2[nH]1 (centres undefined)	i	1.8e-08	-0.2%	i	25%[11.4 µM]
COC(=O)C1C2C=CC3(CN(CC4CCCO4)C(=O)C13)O2 (centres undefined)	i	1e-09	11%	i	-1%
Cc1c(NC(=O)C(C)OC(=O)CC2Sc3ccccc3NC2=O)c(=O)n(-c2ccccc2)n1C (centres undefined)	i	3.2e-08	-2.3%	i	-1%

Compounds listed so far containing two or more sulfur atoms, in the order listed:
SMILES	A488 fluor	A647 autofl	AID923	Resorufin autofl	TSHR agonist
COc1ccc(NC(=O)CN(C)S(=O)(=O)c2cccs2)cc1	i	1e-09	-0.8%	i	-1%
CC(C)(C)c1nc2scc(-c3cccs3)c2c(=O)o1	i	1e-09	0.6%	i	19%

Going on with the list.
SMILES	A488 fluor	A647 autofl	AID923	Resorufin autofl	TSHR agonist
COC(=O)Cn1cc(C(=O)OC)c2ccccc21	i	1.7e-08	1.3%	i	-12%
O=C(CC1Oc2ccccc2NC1=O)NCc1ccc(Cl)cc1 (centres undefined)	.	.	-0.1%	.	8%
O=C(O)c1cc2ccc3ccccc3c2[nH]1	i	5.6e-09	1.9%	i	6%
Fc1cccc2sc(Nc3nnc(-c4ccccc4)o3)nc12	i	5.6e-09	0.6%	i	-19%
CC(=O)Nc1nc(CC(C)C)cc(-c2ccco2)c1C#N	i	2.6e-08	0.1%	i	?
COc1ccccc1-n1nnnc1S(=O)(=O)Cc1ccc(Cl)cc1	i	3.7e-08	-2.3%	i	?
Cc1ccc(C)c(S(=O)(=O)NC(CC(C)C)C(=O)O)c1 (centres undefined)	i	4.6e-09	0.3%	i	0%
COC(=O)[C@@H](NC(=O)Nc1ccccc1F)C(C)C	i	1e-09	-0.6%	i	-2%
Cn1ccnc1SCC(=O)N(C1CCCCC1)C1CCCCC1	i	1e-09	-1.9%	i	4%
Nc1nc2c3ccccc3nc(C3CC3)n2n1	i	2.7e-08	1.4%	i	7%
O=c1nc2n(c3c4c(sc13)CCC4)CCC2	i	1e-09	-0.4%	i	2%
CC(C)(C)NC(=O)c1sccc1C(=O)O	i	2.6e-08	0.2%	i	-5%
O=C(c1cc(C(F)(F)F)cc(C(F)(F)F)c1)N1CCC[C@@]2(CCN(Cc3ccncc3)C2)C1	i	1.2e-09	-1.8%	i	?
COc1ccc(NC(=O)CNc2cccc(C#N)c2)cc1Cl	i	4.5e-08	-0.5%	i	-7%
O=c1c(O)c(-c2cccc(O)c2)oc2ccccc12	i	3.3e-09	3.4%	i	3%
O=C(Cn1cnc2sc(-c3ccccc3)cc2c1=O)NCc1ccco1	i	4e-08	2.8%	i	-5%
CCOc1cc(C)c(Cl)cc1S(=O)(=O)n1nnc2ccccc21	i	1e-09	-0.8%	i	.
O=C(COc1ccc(Cl)cc1Cl)NC(=O)N1CCCCC1	i	4.1e-08	-0.7%	i	6%
O=C(c1cnn2c1NC(c1ccc(Br)cc1)CC2C(F)(F)F)N1CCN2CCCC2C1 (centres undefined)	i	1.6e-08	-0.1%	i	5%[11.4 µM]
CCOC(=O)N1CCN(C(=O)c2cccc(NC(=O)c3ccco3)c2)CC1	i	4.7e-09	-2.4%	i	0%
O=C(Nc1nn(Cc2ccccc2F)cc1Br)c1cccs1	i	9.3e-09	-0.9%	i	0%
Cn1c(=O)n(Cc2ccc(F)cc2)c(=O)c2c1nc1n2CCCN1Cc1ccccc1	i	2.1e-08	-0.7%	i	-24%
COc1ccccc1-c1nc(NCc2cccs2)c2ccccc2n1	i	1e-09	0.0%	i	?
COc1ccc(NC(=O)c2cc(-c3cc(C)ccc3O)n[nH]2)cc1Cl	i	2.1e-09	-0.8%	i	18%
CCCS(=O)(=O)N1CCN(Cc2ccc(OCc3ccccc3)c(OC)c2)CC1	i	1e-09	-1.8%	i	21%

Overlap with the part before: 4 compounds; new compounds follow.
SMILES	A488 fluor	A647 autofl	AID923	Resorufin autofl	TSHR agonist
Cn1c(=O)n(Cc2ccc(F)cc2)c(=O)c2c1nc1n2CCCN1Cc1ccccc1	i	2.1e-08	-0.7%	i	-24%
COc1ccccc1-c1nc(NCc2cccs2)c2ccccc2n1	i	1e-09	0.0%	i	?
COc1ccc(NC(=O)c2cc(-c3cc(C)ccc3O)n[nH]2)cc1Cl	i	2.1e-09	-0.8%	i	18%
CCCS(=O)(=O)N1CCN(Cc2ccc(OCc3ccccc3)c(OC)c2)CC1	i	1e-09	-1.8%	i	21%
O=C(Nc1ccccc1)N1CCCN(Cc2ccccc2F)C1	i	7.1e-09	-0.4%	i	8%
CCOC(=O)C(NC(=O)c1ccc(OC)cc1)(OCC1(CC)COC1)C(F)(F)F (centres undefined)	i	1e-09	-0.2%	i	7.9µM*
COc1ccccc1N(CC(=O)NC1CCCC1)C(=O)CCC(=O)Nc1cc(C)on1	i	4.9e-08	-2.9%	i	-4%
O=C(CCN1CCc2ccccc2C1)Nc1ccccc1F	i	1.5e-08	1.6%	i	14%
CCSc1nc2ccccc2n1CCC(=O)O	i	7.5e-09	0.7%	i	13%
CN(C)S(=O)(=O)c1ccc2oc(SCC(=O)NCC(F)(F)F)nc2c1	i	1e-09	-0.1%	i	-4%
Cc1csc2ncc(C(=O)NCc3ccco3)c(=O)n12	i	1.9e-08	1.4%	i	1%
CCOC(=O)N1CCN(C(=O)C(C)(C)Oc2ccc(Cl)cc2)CC1	.	.	2.1%	.	21%

Some of the entries above in a different format.
Sequence of screens: A488 fluor | A647 autofl | AID923 | Resorufin autofl | TSHR agonist
- CCOC(=O)C(NC(=O)c1ccc(OC)cc1)(OCC1(CC)COC1)C(F)(F)F (centres undefined)
  i | 1e-09 | -0.2% | i | 7.9µM*
- O=C(CCN1CCc2ccccc2C1)Nc1ccccc1F
  i | 1.5e-08 | 1.6% | i | 14%

Compound activity (PubChem)
